Screening data as filed in PubChem BioAssay.
TRPML1 inh: blocks the human TRPML1 channel; Q9GZU1; TRPML1-inducible cells, Ca2+ dye fluorescence, FDSS; active compounds read low; inhibition of EC80 agonist-evoked calcium signal; activity change, negative = inhibition, % (test concentration not listed); actives 0.02% (n = 390,000); in the data active means activity change below about -50%; inconclusive means about -30% to -50%; inactive means above about -30%;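 also: stimulus is agonist 54-4 at its EC80 concentration; % is scaled to controls: 0 for no effect and ±100 for the full control effect; compound concentration not given in the record; the text of the record puts the active cut at -80%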
Target sequence (Q9GZU1 whole entry, looked up): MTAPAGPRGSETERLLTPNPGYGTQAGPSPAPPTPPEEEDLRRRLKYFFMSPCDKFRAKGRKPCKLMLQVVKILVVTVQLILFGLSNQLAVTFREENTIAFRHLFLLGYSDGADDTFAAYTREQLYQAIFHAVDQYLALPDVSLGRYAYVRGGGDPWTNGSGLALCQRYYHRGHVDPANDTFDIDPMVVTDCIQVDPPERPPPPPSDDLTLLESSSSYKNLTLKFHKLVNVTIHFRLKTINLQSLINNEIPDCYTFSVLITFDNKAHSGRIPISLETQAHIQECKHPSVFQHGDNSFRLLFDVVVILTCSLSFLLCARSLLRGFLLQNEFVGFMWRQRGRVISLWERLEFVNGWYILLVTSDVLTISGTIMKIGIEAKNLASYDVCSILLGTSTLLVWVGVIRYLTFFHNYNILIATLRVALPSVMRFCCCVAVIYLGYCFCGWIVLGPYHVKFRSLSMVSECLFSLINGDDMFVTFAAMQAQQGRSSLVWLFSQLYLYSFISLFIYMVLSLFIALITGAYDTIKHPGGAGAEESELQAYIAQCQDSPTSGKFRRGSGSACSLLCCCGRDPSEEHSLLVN
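Calcium fluorescence in TRPML1-DL cells induced overnight with Tet: a 110 s read after compound pin addition, then a 110 s antagonist read after challenge with 54-4 at 4 uM final (EC80).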
ClpP mod: qHTS Assay for Activators of ClpP | ATP-dependent Clp protease proteolytic subunit (Bacillus subtilis (strain 168)), P80244 | purified B. subtilis ClpP, FRET peptide cleavage, 20 min | Potency, µM (doses to about 57.5 µM), inactives show at the top dose activity change, negative = active | actives 1.9% (n = 340,000); active = well fitted falling curve with a large enough effect; inconclusive = small, poorly fitted or top-dose-only effect; inactive = no such curve, though single readings can be large or run the other way; also: potency is read from the fitted curve at half-maximal effect; the source files actives as falling curves though it sought activators and does not explain the sign; nearly all actives have a fitted effect of over 65% in size; many hits overshoot -100%
Target sequence (P80244 whole entry, looked up): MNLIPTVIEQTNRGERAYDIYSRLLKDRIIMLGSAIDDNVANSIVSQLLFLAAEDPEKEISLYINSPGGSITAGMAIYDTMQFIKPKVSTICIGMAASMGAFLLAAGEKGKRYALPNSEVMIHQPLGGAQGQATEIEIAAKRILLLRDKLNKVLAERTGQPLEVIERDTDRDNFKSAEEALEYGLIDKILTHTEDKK
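FRET quenching reversal measured ClpP activation: 10 microg/mL B. subtilis ClpP at pH 8 with the FRET-FV decapeptide, read at 430 nm after 320 nm excitation. The 20-min minus 0-min signal was scaled between DMSO/no-enzyme wells and ADEP (5.8 microM final).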
Starred values were filed as active, the others as inactive; u = inconclusive.

Under each structure: TRPML1 inh, ClpP mod
(1) Cc1nn2c(=O)cc(COC(=O)c3ccccc3NC(=O)c3ccccc3C)nc2s1
→ -14, u
(2) CCCCOc1ccc(CNC(=O)c2cnc3sc(N4CCOCC4)nn3c2=O)cc1
→ 25, u
(3) COc1cccc(CNC(=O)C2CCN(Cc3cc4ccccc4n3Cc3ccccc3)CC2)c1OC
→ 2, u
(4) Cc1cc2nnc(SCC(=O)Nc3ccc(F)c(Cl)c3)n2c2ccccc12
→ 2, 3.8%
(5) CCCCNC(=O)c1nn(-c2ccc(C)cc2)c(=O)c2c1c1ccccc1n2C
→ 8, -13%
(6) COc1ccc(C(CC(=O)Nc2cccc(C)c2C)N2Cc3ccccc3C2=O)cc1 (stereo not drawn)
→ 24, -0.6%
(7) Cn1c(=NC(=O)c2ccc(F)cc2)sc2cc(Br)ccc21
→ 14, 1.2%
(8) Cc1cc(C)cc(-n2c(C)cc(C(=O)C(=O)Nc3ccccc3F)c2C)c1
→ 4, -1.8%
(9) Cc1ccccc1-c1cnc(C(O)c2cc(Cl)cc(Cl)c2)[nH]1 (stereo not drawn)
→ 5, -1.5%
(10) Cc1ccc2c(c1)cc1c(=O)n(Cc3ccccc3Cl)nc(C)n12
→ 14, -5.6%
(11) CCOc1ccccc1C(=O)NC1(C(F)(F)F)C(=O)Nc2c1c(=O)[nH]c(=O)n2-c1ccc(F)cc1 (stereo not drawn)
→ -8, 0.0%
(12) CC(C)c1ccc(NC(=O)Cn2nnc(C(=O)NCCc3ccccc3)c2N)cc1
→ 15, -1.3%
(13) COc1cccc2c1cc1c(=O)n(CC(=O)O)nc(C)n12
→ -11, 27%
(14) Cc1ccc(Cc2c(-c3ccc(C#N)cc3)nc3ccc(Cl)cn23)cc1
→ 3, u
(15) CCC(C(=O)NCCc1ccccc1)n1nc(C)c2sc3ccccc3c2c1=O (stereo not drawn)
→ 18, u
(16) CCOC(=O)c1sc2ccccc2c1S(=O)(=O)N1CCN(c2cc(C)ccc2C)CC1
→ -23, -2.5%
(17) Cc1ccc(CCNC(=O)Cn2c(-c3cccs3)cc3ccccc32)cc1
→ 1, -11%
(18) O=C(CCn1c(=O)c2cccn2c2cccnc21)N1CCN(c2ccc(Cl)cc2)CC1
→ 22, -6.5%
(19) Cc1cc(Oc2nc3ccccn3c(=O)c2/C=C(\C#N)c2nc3ccccc3s2)ccc1Cl
→ 36, -23%
(20) Cc1cccc(NC(=O)c2ccc3nc(C(C)C)oc3c2)c1C
→ -2, 0.1%
(21) CC1CCCN(c2cc3c(cc2F)c(=O)c(S(=O)(=O)c2cccc(Cl)c2)cn3C)C1 (stereo not drawn)
→ -12, -18%
(22) O=C(Nc1ccc(F)c(Cl)c1)c1cc(C2CCCN(S(=O)(=O)c3cccc4cccnc34)C2)on1 (stereo not drawn)
→ 0, -2.0%
(23) Cc1ccc(-n2ncc3c(N4CCCCC4)ncnc32)cc1
→ -10, -19%
(24) COc1ccc(Nc2nc3c(S(=O)(=O)c4ccccc4)nnn3c3ccc(Cl)cc23)cc1OC
→ 20, -0.8%
(25) COc1ccc(CN2CCc3nc(N4CCN(c5ccc(F)cc5)CC4)ncc3C2)c(OC)c1OC
→ 12, -12%
(26) Cc1cccc(C)c1-n1ncc(C(=O)N2CCN(c3ccccn3)CC2)c1C1CCN(C(=O)OC(C)(C)C)CC1
→ -17, 4.2%
(27) CCOC(=O)c1sc2ncn(CC(=O)Nc3cc(Cl)ccc3C)c(=O)c2c1C
→ -18, -2.3%
(28) CCOc1ccc(NC(=O)CSc2nc(-c3cccs3)cc(C(F)(F)F)c2C#N)cc1
→ 0, -2.8%
(29) O=C(Nc1ccc(OC(F)(F)F)cc1)c1nc2ccccc2nc1N1CCCCC1
→ -4, -2.7%
(30) CCOc1ccc(CNC(=O)C2CCCCN2S(=O)(=O)c2ccc(F)cc2)cc1OC (stereo not drawn)
→ -17, 0.8%
(31) COC(=O)c1ccc(C2c3c(-c4ccccc4O)n[nH]c3C(=O)N2Cc2cccnc2)cc1 (stereo not drawn)
→ -14, -3.4%
(32) Brc1ccc2nc(-c3ccco3)c(Cc3ccccc3)n2c1
→ -5, -5.4%
(33) COC(=O)c1ccccc1NC(=O)CN(c1ccccc1OC)S(C)(=O)=O
→ -7, -6.1%
(34) CCOc1ccc(-n2nc3ccc(NC(=O)c4cccc(F)c4)cc3n2)cc1
→ 14, -2.3%
(35) Cc1nc(Nc2ccc(Cl)cc2)cc(-c2ccccc2)n1
→ 5, 4.8%
(36) Clc1ccc(-c2nc3ccc(Br)cn3c2Cc2cccc(Cl)c2)cc1
→ 9, -8.5%
(37) COc1cc(NC(=O)c2cc3nc(-c4ccc(C)cc4)cc(C(F)(F)F)n3n2)cc(OC)c1OC
→ -1, -15%
(38) CCOc1ccccc1NC(=O)NCCn1c(=O)oc2ccc(C)cc21
→ -5, 0.5%
(39) COc1cccc(CNC(=O)CCn2cnc3ccccc3c2=O)c1
→ 5, -0.6%
(40) CCOC(=O)c1nnn(C(CC)C(=O)Nc2c(C)cccc2C)c1C(=O)OCC (stereo not drawn)
→ 8, 1.0%
(41) O=c1cc(N2CCN(c3ccc(F)cc3)CC2)[nH]c(=O)n1-c1cccc(Br)c1
→ -12, -3.6%
(42) CCCCn1c(SCC(=O)Nc2ccc(OCC)cc2)nc2ccsc2c1=O
→ 3, 0.9%
(43) CCc1ccc(OCC(=O)Nc2ccc3oc(-c4ccc(OC)cc4)nc3c2)cc1
→ 20, u
(44) CCc1nc2ccc(C(=O)N3CCN(c4cc(Cl)ccc4C)CC3)cc2nc1CC
→ 10, -27%
(45) Cc1ccc2oc(-c3cccc(NC(=O)c4cccc5c(Cl)cccc45)c3)nc2c1
→ 0, -19%

(listing goes on)
nr	SMILES	TRPML1 inh	ClpP mod
46	COc1cccc(NC(=O)Cn2c(=O)n(-c3cccc(OC)c3)c(=O)c3sc4ccccc4c32)c1	3	28%
47	COc1ccccc1OCC(=O)N(Cc1ccc(N(C)C)cc1)CC1CCCO1 (stereo not drawn)	-5	0.4%
48	O=C(CCS(=O)(=O)c1cc(Br)cc2c1N(C(=O)C1CC1)CC2)N1CCN(c2ccc(F)cc2)CC1	-7	-1.2%
49	COc1ccc(S(=O)(=O)N(CCc2ccccc2)CC(=O)NCc2ccc(C)cc2)cc1	-1	-7.2%
50	COc1ccc(-c2noc(CN(C(=O)c3cc(OC)c(OC)cc3OC)C(C)C)n2)cc1	37	-6.4%
51	COc1cccc(CC(=O)Nc2ccc(-c3nc4ccccc4s3)cc2Cl)c1	-3	4.6%
52	COc1cc(-c2noc(-c3ccc(NC4CCCC4)c([N+](=O)[O-])c3)n2)cc(OC)c1OC	-7	-0.9%
53	Cc1ccccc1NC(=O)c1ccc(F)c(S(=O)(=O)N(C)C2CCCCC2)c1	48	-3.6%
54	O=C(Nc1cccc(Br)c1)N1CCC(CN2CCCCC2)CC1	18	-0.6%
55	O=c1c2ccccc2n2c(-c3ccc(Cl)cc3)nnc2n1CCc1ccccc1	3	-13%
56	Cc1cc(F)ccc1NC(=O)CCSc1nc(-c2ccco2)cc(C(F)(F)F)n1	1	-3.1%
57	Cc1ccc2nc(CSc3nnc(NC(=O)COc4ccccc4)s3)cc(=O)n2c1	16	-0.2%
58	CC(C)c1ccc(CC(=O)N2CCC2(C)C(=O)NCC(C)(C)C)cc1 (stereo not drawn)	-11	-0.6%
59	CCc1ccccc1NC(=O)CSc1ncc2c(n1)-c1ccccc1N(Cc1ccc(C)cc1)S2(=O)=O	1	-2.6%
60	COc1ccc(-c2csc3ncnc(Nc4ccccc4)c23)cc1	5	-5.0%
61	Cc1cccc(N(C)c2nc3ccc(C)cc3n3nnnc23)c1	23	45%
62	Cc1cc(Cl)ccc1NC(=O)CCS(=O)(=O)c1cc2c(cc1C)NC(=O)CO2	19	1.7%
63	Cc1ccn2cc(-c3ccc(C)c(NS(=O)(=O)c4ccc(Cl)cc4)c3)nc2c1	74	4.4%
64	CCOc1ccccc1NS(=O)(=O)c1cc(-c2cnc(C3CC3)o2)ccc1C	41	1.4%
65	COc1ccc(NC(=O)c2c(NC(=O)COc3ccccc3)sc3c2CCC(C(C)(C)C)C3)cc1 (stereo not drawn)	39	-0.5%

Gathered by group: the compounds so far containing a tert-butyl group.
nr	SMILES	TRPML1 inh	ClpP mod
26	Cc1cccc(C)c1-n1ncc(C(=O)N2CCN(c3ccccn3)CC2)c1C1CCN(C(=O)OC(C)(C)C)CC1	-17	4.2%
58	CC(C)c1ccc(CC(=O)N2CCC2(C)C(=O)NCC(C)(C)C)cc1 (stereo not drawn)	-11	-0.6%
65	COc1ccc(NC(=O)c2c(NC(=O)COc3ccccc3)sc3c2CCC(C(C)(C)C)C3)cc1 (stereo not drawn)	39	-0.5%

Some of the entries above, reformatted.
1) Cc1nn2c(=O)cc(COC(=O)c3ccccc3NC(=O)c3ccccc3C)nc2s1
  TRPML1 inh: -14; ClpP mod: u
2) CCCCOc1ccc(CNC(=O)c2cnc3sc(N4CCOCC4)nn3c2=O)cc1
  TRPML1 inh: 25; ClpP mod: u
3) COc1cccc(CNC(=O)C2CCN(Cc3cc4ccccc4n3Cc3ccccc3)CC2)c1OC
  TRPML1 inh: 2; ClpP mod: u
4) Cc1cc2nnc(SCC(=O)Nc3ccc(F)c(Cl)c3)n2c2ccccc12
  TRPML1 inh: 2; ClpP mod: 3.8%

Additional entries follow:
nr	SMILES	TRPML1 inh	ClpP mod
66	CCOc1cc(CN2CCN(S(=O)(=O)c3ccc(C)cc3)CC2)ccc1OC	-2	-0.9%
67	O=C(CSc1nc(-c2ccc(F)cc2)[nH]c1-c1ccc(F)cc1)Nc1ccc2c(c1)OCCO2	1	-8.5%
68	CCCCC(=O)Nc1c(C(=O)N2CCN(c3ccccc3)CC2)oc2ccccc12	3	-0.7%
69	COCCNC(=O)C1CCCN(S(=O)(=O)c2ccc3c(ccn3C)c2)C1 (stereo not drawn)	25	-5.6%
70	Cc1cc(C)cc(N2CCn3c2nc2c3c(=O)n(CCc3ccccc3)c(=O)n2C)c1	-12	u
71	C#CC(C)(CC)NC(=O)Cn1nnc(-c2ccc(OCc3ccccc3F)cc2)n1 (stereo not drawn)	-7	2.8%
72	Cc1cc2nc(-c3cccc(Cl)c3)c(Cc3ccccc3)n2c(C)c1Br	-19	-4.0%
73	COC(=O)c1c(C)sc(-c2c(-c3cccc(OC)c3)[nH]c3c2c(=O)[nH]c(=O)n3C)c1O	24	-1.6%
74	Cc1cccc(NC(=O)CSc2nc(-c3cccs3)nc3cc(=O)[nH]n23)c1	18	-0.8%
75	COc1ccc(CCN2C(=O)N(c3cccc(C)c3)C(=O)C2CC(=O)Nc2ccccc2)cc1OC (stereo not drawn)	0	-1.3%
76	CCC1CN(C(=O)Nc2cccc3c2CCCC3)c2cc(Cl)ccc2O1 (stereo not drawn)	56	-2.6%
77	Nc1ccc(N2CCN(c3ncc(C(F)(F)F)cc3Cl)CC2)c(C(F)(F)F)c1	15	-0.1%
78	CCOc1ccc(NC(=O)c2c(NCc3cccs3)sc3c2CCCCC3)cc1	-13	-2.5%
79	Cc1ccccc1CN1CCC(CNc2ncnc3onc(-c4ccc(Cl)cc4)c23)CC1	18	1.5%
80	Cc1cccc(NC(=O)N2CCc3c(sc4c3CCCC4)C2c2ccc(F)cc2)c1 (stereo not drawn)	13	-4.3%
81	O=C(NC1CCCCCC1)C1CCN(C(=O)N2CCOc3ccccc32)CC1	-5	0.4%
82	CCOC(=O)c1cc(OC(=O)c2ccc(OC)c(OC)c2)n(-c2ccccc2)n1	14	-2.8%
83	CCOC(=O)c1c(NC(=O)/C=C/c2ccc(C)cc2)sc(C(C)=O)c1C	-11	-2.0%
84	CCCN1Cc2cccc(C(=O)Nc3ccccc3C(=O)OC)c2C1=O	8	-0.6%
85	COc1cccc(C(c2sc3nc(-c4ccco4)nn3c2O)N2CCN(C)CC2)c1 (stereo not drawn)	-15	2.2%
86	COc1ccccc1C(O)c1ncc(-c2ccc(Cl)cc2)[nH]1 (stereo not drawn)	-11	-1.4%
87	CCc1ccccc1NC(=O)CN1C(=O)COc2ccc(S(=O)(=O)Nc3ccccc3)cc21	-1	-0.8%
88	CCOc1ccccc1N(CC)C(=O)Cn1ncc2c([nH]c3ccccc32)c1=O	6	u
89	Cc1cccc(C)c1-n1ncc(C(=O)NCCN2CCOCC2)c1C1CCN(C(=O)OC(C)(C)C)CC1	-20	-1.2%
90	CC(C)c1ccc(NC(=O)Cn2c(=O)n(Cc3nc(-c4ccccc4)no3)c(=O)c3cc4c(cc32)OCO4)cc1	15	u
91	O=C(NC1CCCC1)c1ccc2c(c1)N(Cc1ccccc1Cl)C(=O)c1ccccc1S2	57	2.1%
92	Cc1ccc(-n2ncc(C(=O)NCCN3CCN(C)CC3)c2C2CCN(C(=O)OC(C)(C)C)CC2)cc1	-18	-3.5%
93	O=C(CN1C(=O)C2(SCC(=O)N2c2cccc(F)c2)c2ccccc21)NCc1ccccc1Cl (stereo not drawn)	12	-0.6%

These rows are one share of the data. The share of hits here may be higher or lower than overall.
